Screens as filed in PubChem.
rRNA inh HTS = inhibits bacterial ribosomal RNA function over humanized ribosomes | E. coli WT GFP vs humanized-ribosome RFP mutants, fluorescence, 24 h; hits give low values; DMSO median 0, no signal -100 | GFP signal change (wild-type ribosome), % (test concentration not listed) | hit rate 1.6% among 350,000;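 active = significant combined selectivity score with lowered wild-type GFP, culture density cut under 30%, mutant RFP and density less affected; inactive = any of these conditions unmet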; also: one replicate is shown; some compounds called inactive have numbers as strong as hits
rRNA inh HTS OD600 = recorded beside rRNA inh HTS, whose call it bears; OD600 change, %; measured here: OD600 growth;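 optical density of the mix in the first replicate; 0 = DMSO median and -100 = no signal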
rRNA inh HTS RFP = also measured in rRNA inh HTS; calls as there; RFP signal change, %; measured here: RFP humanized mutant strains;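 first replicate; 0 = DMSO median and -100 = no signal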
The depositor's hits bear a star; & = joins results of further samples.

For C[C@H](CO)N1C[C@H](C)[C@H](CN(C)S(=O)(=O)c2ccc(F)cc2)Oc2ccc(NC(=O)Cc3ccccc3)cc2CC1=O the results were rRNA inh HTS -1, rRNA inh HTS OD600 -5 and rRNA inh HTS RFP 9.3.
COc1ccc(-c2ccc3c(c2)[C@@H]2[C@@H](CCN2S(=O)(=O)c2ccc(F)cc2)[C@@H](CO)N3C)cc1 was read as rRNA inh HTS -1, rRNA inh HTS OD600 2 and rRNA inh HTS RFP 4.2.
For C[C@@H]1CN([C@@H](C)CO)S(=O)(=O)c2ccc(C#CC3CC3)cc2O[C@H]1CN(C)Cc1ccccc1F the results were rRNA inh HTS 4, rRNA inh HTS OD600 10 and rRNA inh HTS RFP -0.6.
O=C(C[C@@H]1CC[C@H](NC(=O)c2ccncc2)[C@@H](CO)O1)Nc1ccc(-c2ccccc2)cc1 was read as rRNA inh HTS -4, rRNA inh HTS OD600 -13 and rRNA inh HTS RFP 0.6.
`CC(=O)N(C)C[C@H]1Oc2ncc(-c3ccc(F)cc3)cc2C(=O)N([C@@H](C)CO)C[C@H]1C` gave rRNA inh HTS 0, rRNA inh HTS OD600 6 and rRNA inh HTS RFP -1.8.
`COc1ccc(C(=O)Nc2ccc3c(c2)C(=O)N(C)C[C@H](OC)[C@H](C)CN[C@H](C)CO3)cc1` gave rRNA inh HTS 0, rRNA inh HTS OD600 -4 and rRNA inh HTS RFP 0.9.
O=C(C[C@@H]1CC[C@@H]2[C@H](COC[C@@H](O)CN2Cc2ccccc2)O1)NCc1ccccc1Cl was read as rRNA inh HTS -3, rRNA inh HTS OD600 -1 and rRNA inh HTS RFP -1.6.
For CNC[C@@H]1Oc2c(NS(C)(=O)=O)cccc2C(=O)N(C)C[C@H]1C the results were rRNA inh HTS 0, rRNA inh HTS OD600 5 and rRNA inh HTS RFP -0.8.
`C[C@@H]1CCCCO[C@H](CN(C)C(=O)Nc2ccc(C(F)(F)F)cc2)[C@H](C)CN([C@@H](C)CO)C(=O)c2cc(NC(=O)Nc3ccccc3)ccc2O1` gave rRNA inh HTS 1, rRNA inh HTS OD600 15 and rRNA inh HTS RFP -0.1.
`COc1ccc(-c2csc(C(O)c3ccc(F)c(F)c3)n2)cn1` (stereo unspecified) gave rRNA inh HTS 6, rRNA inh HTS OD600 -9 and rRNA inh HTS RFP -4.6.
`CCCCCCN1C[C@H](n2cc(-c3ccc(F)cc3)nn2)[C@@H](O)C[C@@H]1c1ccccc1` gave rRNA inh HTS 3, rRNA inh HTS OD600 0 and rRNA inh HTS RFP -6.7.
For O=C(c1cccnc1)N1C[C@H]2[C@@H](c3ccccc31)[C@@H](CO)N2C(=O)C1CCOCC1 the results were rRNA inh HTS 3, rRNA inh HTS OD600 1 and rRNA inh HTS RFP -0.4.
Screening CC(=O)N1[C@H](CO)[C@H](c2ccccc2)[C@@H]1CN(CC(C)C)C(=O)c1ccccn1 returned rRNA inh HTS -7, rRNA inh HTS OD600 0 and rRNA inh HTS RFP 1.4.
C[C@H](C(=O)N(C)C[C@H]1OCc2ccccc2-c2c(n(C)c3ccccc23)C(=O)N([C@@H](C)CO)C[C@H]1C)c1ccccc1 was read as rRNA inh HTS 3, rRNA inh HTS OD600 -7 and rRNA inh HTS RFP 6.0.
For CCC(=O)N1[C@H](CO)[C@@H]2c3ccccc3N(C(=O)c3cccc(OC)c3)C[C@@H]21 the results were rRNA inh HTS 6, rRNA inh HTS OD600 9 and rRNA inh HTS RFP 0.2.
Screening Cn1cnc(S(=O)(=O)N2CCCCN3[C@H](CO)[C@H](c4ccc(-c5ccccc5)cc4)[C@@H]3C2)c1 returned rRNA inh HTS -3, rRNA inh HTS OD600 -6 and rRNA inh HTS RFP -1.2.
CCC(=O)Nc1ccc2c(c1)C(=O)N(C)[C@@H]1CC[C@@H](CC(=O)NCc3ccc(OC)cc3)O[C@@H]1CO2 was read as rRNA inh HTS 2, rRNA inh HTS OD600 -5 and rRNA inh HTS RFP -2.0.
C[C@@H]1CCCCO[C@H](CN(C)Cc2ccc(C(F)(F)F)cc2)[C@@H](C)CN([C@H](C)CO)C(=O)c2cc(N(C)C)ccc2O1 was read as rRNA inh HTS -1, rRNA inh HTS OD600 -4 and rRNA inh HTS RFP -0.5.
For COc1cccc(CNC(=O)C[C@@H]2CC[C@@H]3[C@@H](COc4ccc(NC(C)=O)cc4C(=O)N3C)O2)c1 the results were rRNA inh HTS 3, rRNA inh HTS OD600 3 and rRNA inh HTS RFP 0.7.
COc1ccc(S(=O)(=O)Nc2cccc3c2O[C@@H](CN(C)Cc2ccc(Oc4ccccc4)cc2)[C@@H](C)CN([C@@H](C)CO)C3=O)cc1 was read as rRNA inh HTS 3, rRNA inh HTS OD600 6 and rRNA inh HTS RFP 3.5.
Cc1cccc(C(=O)N2CCC(C)(C(=O)NS(=O)(=O)C3CC3)C2)c1C (stereo unspecified) was read as rRNA inh HTS 8, rRNA inh HTS OD600 10 and rRNA inh HTS RFP -2.1.
CC(C)NC(=O)Nc1ccc2c(c1)C(=O)N([C@H](C)CO)C[C@H](C)[C@@H](CN(C)C(=O)Nc1ccc(C(F)(F)F)cc1)OCCCC[C@H](C)O2 was read as rRNA inh HTS -2, rRNA inh HTS OD600 -5 and rRNA inh HTS RFP 2.8.
Screening CCC(=O)N(C)C[C@@H]1Oc2cc(C#Cc3ccccn3)ccc2S(=O)(=O)N([C@@H](C)CO)C[C@H]1C returned rRNA inh HTS 3, rRNA inh HTS OD600 0 and rRNA inh HTS RFP -0.3.
Screening CCCNC(=O)N1[C@@H](C#N)[C@H](c2ccc(-c3cccc(OC)c3)cc2)[C@@H]1CO returned rRNA inh HTS 10, rRNA inh HTS OD600 -44 and rRNA inh HTS RFP 2.3.
O=C(Nc1ccc([N+](=O)[O-])cc1Cl)c1cccc([N+](=O)[O-])c1 was read as rRNA inh HTS 10, rRNA inh HTS OD600 12 and rRNA inh HTS RFP 2.9.
Screening CNC[C@H]1Oc2c(NC(=O)C3CCOCC3)cccc2C(=O)N([C@@H](C)CO)C[C@H]1C returned rRNA inh HTS 1, rRNA inh HTS OD600 -4 and rRNA inh HTS RFP -1.0.
Cc1ccc(S(=O)(=O)N(C)C[C@@H]2OCCCC[C@@H](C)Oc3ccc(NS(=O)(=O)c4ccccc4)cc3C(=O)N([C@@H](C)CO)C[C@H]2C)cc1 was read as rRNA inh HTS -1, rRNA inh HTS OD600 -7 and rRNA inh HTS RFP -0.7.
`C[C@H](CO)N1C[C@H](C)[C@H](CN(C)S(=O)(=O)c2ccccc2)Oc2ccc(NS(=O)(=O)c3cn(C)cn3)cc2C1=O` gave rRNA inh HTS 6, rRNA inh HTS OD600 6 and rRNA inh HTS RFP -1.6.
For C[C@@H]1CCCCO[C@H](CN(C)C(=O)Cc2ccccc2)[C@@H](C)CN([C@H](C)CO)C(=O)c2cc(NC(=O)CCCN(C)C)ccc2O1 the results were rRNA inh HTS 4, rRNA inh HTS OD600 6 and rRNA inh HTS RFP -1.1.
C[C@H](NC(=O)C[C@@H]1CC[C@H]2[C@@H](COC[C@@H](O)CN2C(=O)Nc2cccc(Cl)c2)O1)c1ccccc1 was read as rRNA inh HTS -56, rRNA inh HTS OD600 -76 and rRNA inh HTS RFP -18.
Cc1cccc(C)c1C(O)c1ncc(-c2cccc3ccccc23)[nH]1 (stereo unspecified) was read as rRNA inh HTS -19, rRNA inh HTS OD600 -24 and rRNA inh HTS RFP 1.5.
For CC(C)CC#Cc1ccc([C@@H]2[C@@H](CO)N3CCCCN(S(=O)(=O)c4ccc(F)cc4)C[C@H]23)cc1 the results were rRNA inh HTS -26, rRNA inh HTS OD600 -1 and rRNA inh HTS RFP 35.
For Fc1ccc(Nc2nc(NCc3ccccc3)nc3ccsc23)cc1 the results were rRNA inh HTS -9, rRNA inh HTS OD600 -51 and rRNA inh HTS RFP 23.
For C[C@@H]1CCCCO[C@H](CN(C)C)[C@@H](C)CN([C@H](C)CO)C(=O)c2cc(NC(=O)CCCN(C)C)ccc2O1 the results were rRNA inh HTS 3, rRNA inh HTS OD600 9 and rRNA inh HTS RFP -3.0.
Screening C[C@H]1CN([C@@H](C)CO)C(=O)c2cc(NS(=O)(=O)c3ccc(Cl)cc3)ccc2O[C@@H]1CN(C)S(C)(=O)=O returned rRNA inh HTS 4, rRNA inh HTS OD600 8 and rRNA inh HTS RFP -0.6.
Screening Cc1cccc(-c2ccc([C@H]3[C@H](CO)N4CCCCN(C(=O)c5cccnc5)C[C@@H]34)cc2)c1 returned rRNA inh HTS 2, rRNA inh HTS OD600 -4 and rRNA inh HTS RFP 1.8.
`C[C@H](CO)N1C[C@H](C)[C@H](CN(C)Cc2ccncc2)Oc2ccc(NC(=O)CCN3CCOCC3)cc2CC1=O` gave rRNA inh HTS 0, rRNA inh HTS OD600 -2 and rRNA inh HTS RFP -1.0.
O=C(C[C@H]1CC[C@H]2[C@@H](COC[C@H](O)CN2Cc2ccccc2F)O1)N[C@@H]1CCN(Cc2ccccc2)C1 was read as rRNA inh HTS -8, rRNA inh HTS OD600 -23 and rRNA inh HTS RFP 17.
Screening C[C@@H](NC(=O)C[C@@H]1C[C@H]2c3cc(NC(=O)c4ccc5c(c4)OCO5)ccc3O[C@H]2[C@@H](CO)O1)c1ccccc1 returned rRNA inh HTS -4, rRNA inh HTS OD600 0 and rRNA inh HTS RFP -1.6.
C[C@@H]1CN([C@@H](C)CO)C(=O)c2cc(NC(=O)CCN3CCOCC3)ccc2O[C@H]1CN(C)C(=O)Nc1ccc2c(c1)OCO2 was read as rRNA inh HTS 4, rRNA inh HTS OD600 3 and rRNA inh HTS RFP 1.2.
COc1ccccc1C(=O)Nc1ccc2c(c1)C(=O)N(C)[C@H]1CC[C@H](CC(=O)Nc3cc(F)ccc3F)O[C@@H]1CO2 was read as rRNA inh HTS 7, rRNA inh HTS OD600 22 and rRNA inh HTS RFP -0.3.
For CCC(=O)Nc1ccc2c(c1)C(=O)N(C)[C@@H]1CC[C@H](CC(=O)NC3CCCC3)O[C@@H]1CO2 the results were rRNA inh HTS 4, rRNA inh HTS OD600 7 and rRNA inh HTS RFP -0.8.
CO[C@H]1CN(C)C(=O)c2cc(NC(=O)c3cccc(F)c3)ccc2OC[C@H](C)N(C(C)=O)C[C@H]1C was read as rRNA inh HTS 2, rRNA inh HTS OD600 3 and rRNA inh HTS RFP 0.7.
CC(C)c1cn(CC[C@H]2CC[C@H](NC(=O)C3CCOCC3)[C@@H](CO)O2)nn1 was read as rRNA inh HTS 1, rRNA inh HTS OD600 0 and rRNA inh HTS RFP 0.1.
`CCc1nc2ccc(C(=O)Nc3ccc(OC)c(OC)c3)cn2c1N(C)Cc1ccc(OC)cc1` gave rRNA inh HTS -14, rRNA inh HTS OD600 -42 and rRNA inh HTS RFP -9.0.
`CCC(=O)Nc1ccc2c(c1)C(=O)N(C)C[C@H](OC)[C@@H](C)CN(C(=O)CC)[C@H](C)CO2` gave rRNA inh HTS 0, rRNA inh HTS OD600 6 and rRNA inh HTS RFP -1.7.
COCCNC(=O)C[C@H]1CC[C@@H]2[C@H](COc3ccc(NC(=O)COC)cc3C(=O)N2C)O1 was read as rRNA inh HTS 4, rRNA inh HTS OD600 7 and rRNA inh HTS RFP -4.1.
CCOC(=O)N(C)C[C@H]1OCc2cnnn2CCCC(=O)N([C@@H](C)CO)C[C@@H]1C was read as rRNA inh HTS 2&1, rRNA inh HTS OD600 11&6 and rRNA inh HTS RFP 4.0&-3.8.
`COc1cccc(C#Cc2ccc3c(c2)[C@@H]2[C@@H](CCN2C(=O)CC2CC2)[C@@H](CO)N3)c1` gave rRNA inh HTS -2, rRNA inh HTS OD600 1 and rRNA inh HTS RFP -2.1.
`CCC(=O)N(C)C[C@H]1Oc2cc(C#Cc3ccncc3)ccc2S(=O)(=O)N([C@@H](C)CO)C[C@H]1C` gave rRNA inh HTS -2, rRNA inh HTS OD600 -13 and rRNA inh HTS RFP -1.3.
For C[C@@H]1CN([C@@H](C)CO)S(=O)(=O)c2ccc(C3=CCCCC3)cc2O[C@H]1CN(C)C(=O)C1CCC1 the results were rRNA inh HTS -21, rRNA inh HTS OD600 -49 and rRNA inh HTS RFP 22.
`Cc1ccc([C@H]2C[C@@H](n3cc(C4CC4)nn3)[C@H](O)CN2C(=O)C2CCCCC2)cc1` gave rRNA inh HTS -4, rRNA inh HTS OD600 -8 and rRNA inh HTS RFP 3.4.

Some of the compounds tested. The share of hits here may be higher or lower than overall.
